Vaccinia stage – blocks a specific stage of Vaccinia orthopoxvirus infection | AID 1053133 | 89,000 compounds, 0.01% hits | activity change (mCherry), % (no concentration beside the values) | Vaccinia-infected cells, mCherry/Venus stage reporter fluorescence; stronger effect = lower value; some inactives read as strong as hits;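 active = mCherry past -33% and 40 or more points under the early reporter, replicates agreeing; inconclusive = past -33% without that gap or agreement; tested in A549 cells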;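 also: scaled between vehicle wells and reference inhibitor wells; 23 nL library stock went into each well; one replicate is shown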
Vaccinia stage Venus – also measured in Vaccinia stage; calls as there; activity change (Venus), %; measured here: Venus reporter, other viral stage;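 negative = less Venus signal; first of two replicates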
* marks the source's active call; other numbers are inactive results; ? = inconclusive; / = no result given. These rows are one share of the data. The share of hits here may be higher or lower than overall.

SMILES	Vaccinia stage	Vaccinia stage Venus
COCC#Cc1ccc2c(c1)O[C@@H](CN(C)C(=O)C1CC1)[C@@H](C)CN([C@H](C)CO)S2(=O)=O	18	11
CCC(=O)Nc1ccc2c(c1)OC[C@H](C)N(Cc1cncnc1)C[C@H](C)[C@@H](OC)CN(C)C2=O	21	14
O=C(Nc1cccc(F)c1)N1C[C@H]2[C@@H](c3ccccc31)[C@@H](CO)N2C(=O)c1cccnc1	9	12
C=C1C(=O)O[C@H]2[C@@H]1CC/C(CO)=C\CC[C@@]1(C)O[C@@H]21	?	/
CCC(=O)N[C@@H]1CC[C@H](CCNC(=O)Nc2ccc(F)cc2)O[C@@H]1CO	10	14
CC1=C([C@H](O)CCc2ccccc2)[C@H](CO)n2c(=O)n(-c3ccccc3)c(=O)n2C1	8	-2
C[C@H](CO)N1C[C@H](C)[C@H](CN(C)C(=O)Nc2ccccc2)Oc2c(NS(=O)(=O)c3cn(C)cn3)cccc2C1=O	9	11
N#C[C@H]1[C@H](c2ccc(C3=CCCC3)cc2)[C@@H](CO)N1c1nc(-c2ccccc2)cs1	-2	2
COc1ccc(NC(=O)N(C)C[C@H]2OCCCC[C@@H](C)Oc3ccc(NS(=O)(=O)c4ccccc4)cc3C(=O)N([C@@H](C)CO)C[C@H]2C)cc1	26	10
O=C(Nc1ccccc1)N1CCCCN2[C@@H](CO)[C@H](c3ccc(C#CC4CC4)cc3)[C@@H]2C1	?	/
CC(C)NC(=O)N1[C@H](C#N)[C@@H](c2ccccc2-c2ccc(F)cc2)[C@@H]1CO	-3	-1
COc1ccc(NC(=O)N2CCCCN3[C@@H](CO)[C@H](c4ccc(C5=CCCCC5)cc4)[C@@H]3C2)cc1	?	/
Cc1ccc(S(=O)(=O)NCC[C@H]2CC[C@H](NC(=O)NC(C)C)[C@@H](CO)O2)cc1	5	12
COCC(=O)Nc1ccc2c(c1)OC[C@@H](C)N(Cc1cc(F)ccc1F)C[C@H](C)[C@H](OC)CN(C)C2=O	10	15
COC(=O)C[C@@H]1CC[C@H]2[C@H](COc3ccc(NC(=O)Nc4cccc(F)c4)cc3C(=O)N2C)O1	-5	8
CC(C)NC(=O)N(C)C[C@@H]1OCc2ccccc2-c2ccccc2C(=O)N([C@H](C)CO)C[C@@H]1C	22	15
C[C@@H]1CN([C@@H](C)CO)C(=O)c2cc(NC(=O)CCC(F)(F)F)ccc2O[C@@H](C)CCCCO[C@@H]1CN(C)S(=O)(=O)c1ccc(F)cc1	-6	1
CO[C@@H]1CN(C)C(=O)c2cc(NC(=O)Nc3cccc(F)c3)ccc2OC[C@@H](C)N(C(C)=O)C[C@@H]1C	3	7
COc1ccc(S(=O)(=O)Nc2ccc3c(c2)C(=O)N([C@H](C)CO)C[C@@H](C)[C@@H](CN(C)CC2CC2)O3)cc1	7	4
Cc1cc(C(=O)Nc2cccc3c2O[C@H](CN(C)C(=O)Nc2ccc(F)cc2)[C@@H](C)CN([C@H](C)CO)C3=O)n(C)n1	12	4
O=C(NC1CCCC1)[C@@H]1[C@@H](CO)[C@@H]2Cn3c(cccc3=O)[C@@H]2N1CC1CCOCC1	7	8
CC(C)NC(=O)Nc1ccc2c(c1)C(=O)N([C@H](C)CO)C[C@@H](C)[C@H](CN(C)Cc1ccccc1)O2	-1	-1
O=C(C[C@H]1CC[C@@H]2[C@H](COC[C@@H](O)CN2Cc2cccc(C(F)(F)F)c2)O1)NCc1ccc(Cl)cc1	?	/
CN(C)C(=O)c1cccc(-c2cccc(-c3nc(C(=O)N4CCOCC4)cc4c3[C@H](CCO)N([S@@](=O)C(C)(C)C)C4)c2)c1	11	13
O=C1CN(S(=O)(=O)Cc2ccccc2)C[C@@H]2[C@@H](c3ccc(C#Cc4cccc(F)c4)cc3)[C@H](CO)N12	?	/
C[C@H](O)C#Cc1cnc2c(c1)C(=O)N([C@@H](C)CO)C[C@H](C)[C@H](CN(C)C(=O)Cc1ccncc1)O2	14	12
Cc1ccc(-c2ccc([C@@H]3[C@@H](CO)N4CCCCN(C(=O)Nc5cccc(F)c5)C[C@@H]34)cc2)cc1	?	/
C[C@H]1CN([C@@H](C)CO)C(=O)c2ccccc2-c2ccccc2CO[C@@H]1CN(C)S(=O)(=O)c1ccc([N+](=O)[O-])cc1	-29	-23
O=C(Cc1cccnc1)N[C@H]1CC[C@@H](CCn2cc(-c3ccccc3F)nn2)O[C@@H]1CO	3	0
O=C(C[C@H]1CC[C@H]2[C@@H](COC[C@@H](O)CN2Cc2ccccc2F)O1)N[C@@H]1CCN(Cc2ccccc2)C1	-27	-23

In the list so far, these have a cyano group:
SMILES	Vaccinia stage	Vaccinia stage Venus
N#C[C@H]1[C@H](c2ccc(C3=CCCC3)cc2)[C@@H](CO)N1c1nc(-c2ccccc2)cs1	-2	2
CC(C)NC(=O)N1[C@H](C#N)[C@@H](c2ccccc2-c2ccc(F)cc2)[C@@H]1CO	-3	-1

Next part
SMILES	Vaccinia stage	Vaccinia stage Venus
C[C@@H]1CN([C@@H](C)CO)S(=O)(=O)c2ccc(C#C[C@@H](C)O)cc2O[C@H]1CN(C)Cc1cccnc1	-9	-17
CN(C)c1ccc2c(c1)[C@@H]1C[C@H](CC(=O)NCc3ccc(Cl)cc3)O[C@@H](CO)[C@@H]1O2	6	8
C[C@@H]1CCCCO[C@@H](CN(C)C(=O)Nc2ccc(C(F)(F)F)cc2)[C@H](C)CN([C@H](C)CO)C(=O)c2cc(NC(=O)NC3CCCCC3)ccc2O1	-23	-8
CC(C)NC(=O)N(C)C[C@H]1Oc2ccc(NC(=O)Nc3ccc(C(F)(F)F)cc3)cc2CC(=O)N([C@@H](C)CO)C[C@@H]1C	0	-5
Cc1noc(C)c1NC(=O)Nc1cccc2c1O[C@@H](CN(C)Cc1ccc3c(c1)OCO3)[C@H](C)CN([C@H](C)CO)C2=O	7	-3
Cc1noc(C)c1NC(=O)Nc1ccc2c(c1)CC(=O)N([C@H](C)CO)C[C@H](C)[C@H](CN(C)C(=O)Nc1ccccc1)O2	8	14
CC(C)NC(=O)Nc1ccc2c(c1)C(=O)N(C)[C@H]1CC[C@@H](CC(=O)NCc3ccc(F)cc3)O[C@H]1CO2	2	-2
C[C@@H]1CN([C@H](C)CO)C(=O)c2cc(NC(=O)Cc3cn(C)c4ccccc34)ccc2O[C@H]1CN(C)S(C)(=O)=O	15	9
O=C1CN(S(=O)(=O)Cc2ccccc2)C[C@@H]2[C@H](c3ccc(C#Cc4cccnc4)cc3)[C@@H](CO)N12	1	3
O=C(C[C@H]1CC[C@@H](NC(=O)c2ccncc2)[C@H](CO)O1)NCc1ccncn1	11	8
Cc1noc(C)c1S(=O)(=O)Nc1ccc2c(c1)C(=O)N([C@@H](C)CO)C[C@@H](C)[C@H](CN(C)Cc1ccc(-c3ccccc3)cc1)O2	-11	-11
COc1cccc(NC(=O)N2C[C@H](O)COC[C@@H]3O[C@H](CC(=O)NC4Cc5ccccc5C4)CC[C@H]32)c1	3	-2
COc1ccc(C#Cc2ccc3c(c2)O[C@@H](CN(C)C(=O)NC2CCCCC2)[C@H](C)CN([C@H](C)CO)S3(=O)=O)cc1	?	/
CC(C)NC(=O)NCC[C@@H]1CC[C@H](NC(=O)c2ccc(F)cc2)[C@H](CO)O1	2	3
C[C@@H]1CCCCO[C@@H](CN(C)C(=O)CCCN(C)C)[C@@H](C)CN([C@H](C)CO)C(=O)c2cc(NS(=O)(=O)c3cn(C)cn3)ccc2O1	4	1
COc1ccc2c3c(n(C)c2c1)[C@@H](CO)N(Cc1ccccc1OC)CC31CCN(C)CC1	?	/
C/C=C/c1ccc([C@H]2[C@@H](CO)N(c3nc(CC)cs3)[C@H]2C#N)cc1	-2	-7
CO[C@@H]1CN(C)C(=O)c2ccc(NC(=O)Nc3ccccc3)cc2OC[C@H](C)N(C(=O)CC2CC2)C[C@@H]1C	1	0
COc1ccc2c3c(n(C)c2c1)[C@@H](CO)N(S(=O)(=O)c1ccc(C)cc1)CC31CCN(C(=O)c2ccccn2)CC1	-15	-6
CN1C(=O)c2cc(NC(=O)C3CCCC3)ccc2OC[C@H]2O[C@@H](CC(=O)NCCc3ccncc3)CC[C@@H]21	21	10
CC(C)NC(=O)N(C)C[C@@H]1Oc2ccc(NS(=O)(=O)c3ccc(Cl)cc3)cc2C(=O)N([C@H](C)CO)C[C@H]1C	13	17
C[C@@H]1CN([C@H](C)CO)C(=O)c2c(c3ccccc3n2C)-c2ccccc2CO[C@@H]1CN(C)C(=O)C1CC1	4	-4
CCCC#Cc1ccc2c(c1)O[C@H](CN(C)C(=O)c1ccccc1)[C@@H](C)CN([C@@H](C)CO)S2(=O)=O	-24	-18
Cc1cc(C(=O)Nc2cccc3c2O[C@H](CN(C)CC2CCCCC2)[C@H](C)CN([C@@H](C)CO)C3=O)n(C)n1	3	9
C[C@H]1CN([C@@H](C)CO)C(=O)Cc2cc(N(C)C)ccc2O[C@H]1CN(C)C(=O)Nc1ccc2c(c1)OCO2	5	0
CO[C@@H]1CN(C)C(=O)c2cc(NC(=O)Nc3cccc(Cl)c3)ccc2OC[C@H](C)NC[C@H]1C	-30	-23
COc1ccc(S(=O)(=O)N(C)C[C@@H]2Oc3c(cccc3N(C)C)C(=O)N([C@@H](C)CO)C[C@H]2C)cc1	20	11
COc1ccc(CN(C)C[C@H]2Oc3ccc(NC(=O)Nc4ccc(F)cc4)cc3C(=O)N([C@@H](C)CO)C[C@H]2C)cc1	2	3
C[C@@H]1CN([C@@H](C)CO)C(=O)c2cccc(NC(=O)c3ccncc3)c2O[C@@H]1CN(C)Cc1ccc(C(=O)Nc2ccccc2N)cc1	-10	-6
C[C@H]1CN([C@@H](C)CO)C(=O)c2c(c3ccccc3n2C)-c2ccccc2CO[C@H]1CN(C)S(=O)(=O)c1ccc(C(F)(F)F)cc1	-34	-24
COc1cc(CN2[C@@H]3CNC[C@H]2C3c2ccc(-c3ccccc3)cc2)cc(OC)c1 (stereo partly drawn)	?	2
CN(C)C(=O)c1ccc(-c2ccc([C@@H]3[C@@H](CO)N4CCCCN(C(=O)C5CC5)C[C@@H]34)cc2)cc1	17	3
COCC#Cc1cnc2c(c1)C(=O)N([C@H](C)CO)C[C@@H](C)[C@H](CN(C)Cc1ccc(F)cc1)O2	-1	-3
Cc1noc(C)c1S(=O)(=O)N(C)C[C@H]1OCCCC[C@H](C)Oc2ccc(NC(=O)CCCN(C)C)cc2C(=O)N([C@H](C)CO)C[C@@H]1C	4	3
Cc1ccccc1S(=O)(=O)NCC[C@@H]1CC[C@H](NC(=O)C2CCC2)[C@@H](CO)O1	-4	-8
CO[C@H]1CN(C)C(=O)c2ccc(NC(C)=O)cc2OC[C@@H](C)NC[C@H]1C	0	3
C[C@@H]1CN([C@@H](C)CO)C(=O)Cc2cc(NS(=O)(=O)c3cccs3)ccc2O[C@@H]1CN(C)Cc1ccc2c(c1)OCO2	16	11
CN(C[C@H]1N[C@@H](CO)[C@H]1c1ccc(C2=CCCC2)cc1)S(C)(=O)=O	9	13
O=C(Cc1ccccn1)N[C@@H]1C=C[C@@H](CC(=O)N2CCCCC2)O[C@@H]1CO	-7	2
C[C@H]1CN([C@@H](C)CO)C(=O)c2cc(NC(=O)Nc3ccccc3)ccc2O[C@H]1CN(C)Cc1ccncc1	6	6
C[C@@H](NC(=O)[C@@H]1N[C@@H]2c3ccc(C4=CCCCC4)c(=O)n3C[C@@H]2[C@H]1CO)c1ccccc1	-7	-9
COc1ccc2c3c([nH]c2c1)[C@@H](CO)N(C(=O)NC1CCCC1)CC31CN(C(=O)Nc2cccc(F)c2)C1	5	-10
C[C@@H]1CN([C@H](C)CO)C(=O)c2cc(NC(=O)Nc3ccc4c(c3)OCO4)ccc2O[C@@H](C)CCCCO[C@H]1CN(C)S(C)(=O)=O	9	2
CN(C)C(=O)c1cccc(-c2ccccc2[C@@H]2[C@@H](CO)N(C(=O)C3CCCC3)[C@H]2C#N)c1	11	8
CO[C@H]1CN(C)C(=O)c2ccc(NS(=O)(=O)c3cn(C)cn3)cc2OC[C@H](C)NC[C@@H]1C	5	6
C[C@H](CO)N1C[C@H](C)[C@H](CN(C)Cc2cccc(F)c2)Oc2ncc(C#CCN(C)C)cc2C1=O	-10	-6

Entries listed so far that contain an aryl methoxy group (11):
SMILES	Vaccinia stage	Vaccinia stage Venus
COc1ccc(NC(=O)N(C)C[C@H]2OCCCC[C@@H](C)Oc3ccc(NS(=O)(=O)c4ccccc4)cc3C(=O)N([C@@H](C)CO)C[C@H]2C)cc1	26	10
COc1ccc(NC(=O)N2CCCCN3[C@@H](CO)[C@H](c4ccc(C5=CCCCC5)cc4)[C@@H]3C2)cc1	?	/
COc1ccc(S(=O)(=O)Nc2ccc3c(c2)C(=O)N([C@H](C)CO)C[C@@H](C)[C@@H](CN(C)CC2CC2)O3)cc1	7	4
COc1cccc(NC(=O)N2C[C@H](O)COC[C@@H]3O[C@H](CC(=O)NC4Cc5ccccc5C4)CC[C@H]32)c1	3	-2
COc1ccc(C#Cc2ccc3c(c2)O[C@@H](CN(C)C(=O)NC2CCCCC2)[C@H](C)CN([C@H](C)CO)S3(=O)=O)cc1	?	/
COc1ccc2c3c(n(C)c2c1)[C@@H](CO)N(Cc1ccccc1OC)CC31CCN(C)CC1	?	/
COc1ccc2c3c(n(C)c2c1)[C@@H](CO)N(S(=O)(=O)c1ccc(C)cc1)CC31CCN(C(=O)c2ccccn2)CC1	-15	-6
COc1ccc(S(=O)(=O)N(C)C[C@@H]2Oc3c(cccc3N(C)C)C(=O)N([C@@H](C)CO)C[C@H]2C)cc1	20	11
COc1ccc(CN(C)C[C@H]2Oc3ccc(NC(=O)Nc4ccc(F)cc4)cc3C(=O)N([C@@H](C)CO)C[C@H]2C)cc1	2	3
COc1cc(CN2[C@@H]3CNC[C@H]2C3c2ccc(-c3ccccc3)cc2)cc(OC)c1 (stereo partly drawn)	?	2
COc1ccc2c3c([nH]c2c1)[C@@H](CO)N(C(=O)NC1CCCC1)CC31CN(C(=O)Nc2cccc(F)c2)C1	5	-10
